From PubChem
HIV TAR-Tat – HIV-1 TAR-Tat binding disruption. HIV-1 TAR RNA, Tat peptide displacement FRET; active compounds read high. z-score (test concentration not listed). actives 0.6% (n = 100,000);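 further: score is relative to mean and SD of negative controls; some compounds called inactive have numbers as strong as hits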
CDC25B-CDK2 inh – human CDC25B-CDK2/CyclinA binding inhibition; P30305+P24941; HTRF CDC25B-CDK2/CyclinA binding, anti-His/anti-Flag; active compounds read high; z-score (concentration not given with the values); actives 0.72% (n = 94,000); AID 1259370;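 further: score is relative to mean and SD of negative controls; strong numbers were not always called active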
* hit, by the source's call; nt = no result given.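 How the source made its calls: active means z-score from 3 up in half or more of its runs; inactive means the rest.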 A portion of the library (hit frequency here may not be typical).

smiles	HIV TAR-Tat	CDC25B-CDK2 inh
Cc1ccc2[nH]cc(C(O)CN3CCOCC3)c2c1 (stereo not given)	0.99	-2.1
O=C(NCc1cccnc1)NC1CCCCC1	1.8	1.2
CN(C)C(=O)Oc1cccc(NC(=O)c2ccccc2C(F)(F)F)c1	nt	-1.4
CC12CN3CN(C1)CC(c1ccccc1)(C3)C2=O	2.9	0.64
Cc1cc(C)nc(-n2nc(C)c3c2NC(=O)CSC3c2ccccc2Cl)n1 (stereo not given)	-1.4	-1.3
CCCCC1C(=O)NC(=S)NC1=O	nt	-0.9
CCC(=O)N1N=C2C3CCN(CC3)C2C1c1ccc(N(C)C)cc1 (stereo not given)	-1.3	0.4
Clc1ccc(C(c2ccc(Cl)cc2)n2cc[n+](CC(OCc3ccc(Cl)cc3Cl)c3ccc(Cl)cc3Cl)c2)cc1 (stereo not given)	nt	-0.93
CC1c2cccn2-c2ccccc2CN1C(=O)Nc1ccc(Cl)cc1 (stereo not given)	-0.26	nt
CN1C2CCC1CC(OC(=O)c1ccccc1)C2 (stereo not given)	nt	1.1
Fc1cc(F)c2c(c1)C1C=CCC1C(c1cccnc1)N2 (stereo not given)	-0.72	1.2
Cc1ccc(-n2nc(C)c3c2NC(=O)CSC3c2ccc(Br)cc2)cc1 (stereo not given)	0.11	-1.2
C[C@@H]1CCC2(NC1)O[C@H]1C[C@H]3[C@@H]4CC=C5C[C@@H](O)CC[C@]5(C)[C@H]4CC[C@]3(C)[C@H]1[C@H]2C (stereo not given in full)	1.1	nt
OC(CN1CC=C(c2ccccc2)CC1)C(F)(F)F (stereo not given)	nt	0.31
CN1CCN(C(=O)Cc2c(C(=O)O)[nH]c3ccccc23)CC1	nt	-0.64
Cc1ccc(-n2nc(C)c3c2NC(=O)CSC3c2cc(F)cc(F)c2)cc1 (stereo not given)	2	-1.9
CN(C)C(=O)Oc1cc(C(F)(F)F)nc(C2CC2)n1	nt	-3.8
CN(C)C=NC(=O)CN1CCCC1=O	nt	-1
COc1ccc(C2SCC(=O)Nc3c2c(C)nn3-c2nc(C)cc(C)n2)c(OC)c1 (stereo not given)	1.9	-1.9
CC(=O)O[C@@H]1C2CC[C@@H]3C1(C[C@@H](O)[C@@]1(O)[C@@H](C[C@H](O)C1(C)C)[C@]3(C)O)C[C@@]2(C)O (stereo not given in full)	1.5	nt
CN(C)[C@@H]1C(=O)C(C(N)=O)=C(O)[C@@]2(O)C(=O)C3=C(O)c4c(O)cccc4[C@@](C)(O)[C@H]3C[C@@H]12	-1	nt
CCCCCn1c(N)c(C(=O)OC)c2nc3ccccc3nc21	0.97	1.8
C=CCc1cc(C)cc(-n2nc3ccccc3n2)c1O	0.2	-1.1
Cc1ccsc1C1C(C#N)=C(N)Oc2c1c(=O)oc1ccccc21 (stereo not given)	nt	0.08
CCOC(=O)C1=C(N)OC(C)=C(C(=O)OC(C)(C)C)C12C(=O)N(CC(=O)OC)c1ccccc12 (stereo not given)	nt	0.85
CCOC(=O)C1(O)C(=O)Nc2cc(OC)cc(OC)c21 (stereo not given)	nt	-1.3
Cc1cc(C)nc(-n2nc(C)c3c2NC(=O)CSC3c2ccc(F)cc2)n1 (stereo not given)	-0.49	0.44
CC12CN3CC(C)(CN(C1)C31CCSCC1)C2=O	nt	0.29
Cn1c(=O)cc(OCC(=O)N2CCN(C3CCCCC3)CC2)c2ccccc21	nt	0
CCCCOc1ccc(C2SCC(=O)Nc3c2c(=O)[nH]n3C2CCOC(C)(C)C2)cc1 (stereo not given)	1.9	-0.25

Sorted by number of heavy atoms (falling): four of the compounds above.
smiles	HIV TAR-Tat	CDC25B-CDK2 inh
Cc1cc(C)nc(-n2nc(C)c3c2NC(=O)CSC3c2ccc(F)cc2)n1 (stereo not given)	-0.49	0.44
C=CCc1cc(C)cc(-n2nc3ccccc3n2)c1O	0.2	-1.1
Cc1ccc2[nH]cc(C(O)CN3CCOCC3)c2c1 (stereo not given)	0.99	-2.1
CN(C)C=NC(=O)CN1CCCC1=O	nt	-1

Continuation:
smiles	HIV TAR-Tat	CDC25B-CDK2 inh
COC(=O)c1ccc(-c2ccc(C(=O)OC)cc2)cc1	nt	-1.8
Cc1nn(-c2nc3ccccc3s2)c2c1C(c1cccc(O)c1)SCC(=O)N2 (stereo not given)	-0.56	-1.4
CC(=O)Nc1nc(C)c(Oc2ccccc2)c(OC(=O)N(C)C)n1	nt	-1.8
O=[N+]([O-])/C=C/c1ccc([N+](=O)[O-])cc1	nt	0.39
COc1cc2c(cc1OC)[C@@H](C)NCC2	2.5	nt
CN(C)CCN(C(=O)COc1ccc(Cl)cc1)c1nc2c(F)cc(F)cc2s1	1.3	nt
CN(C)c1ccc([N+](=O)[O-])c2nonc12	nt	-0.31
O=C1NC(=S)NC(=O)C1=Cc1cccnc1	nt	-2.2
CC1CCCC(C2(O)C(=O)Nc3ccccc32)C1=O (stereo not given)	nt	-0.19
CCN(CC)S(=O)(=O)c1ccc2oc(C(=O)N3CCC4(CC3)OCCO4)c(C)c2c1	nt	0.74
Cc1cccc(C2SCC(=O)Nc3c2c(C)nn3-c2ccccc2)c1 (stereo not given)	0.23	-2
CCOC(=O)C1=C(C)OC(N)=C(C(=O)OCC)C12C(=O)N(CC(N)=O)c1ccccc12 (stereo not given)	nt	0.92
CN1CCN(c2ccccc2C=C(C#N)C#N)CC1	nt	9.2
O=[N+]([O-])/C=C/c1ccc(Cl)cc1Cl	nt	-1
CCO/N=C(\C)c1ccc(C)nc1	nt	0.59
Cn1c[n+](C)cc1C(O)c1ccccc1 (stereo not given)	-0.95	-1.6
c1ccc2c(CN3CCCCCC3)c[nH]c2c1	nt	-0.77
CCCCCn1cc(C(=O)c2ccc(OC)cc2)c2ccccc21	1.1	nt
CCCCOC(=O)C1=C(N)OC(CC(=O)OC)=C(C(=O)OC)C12C(=O)N(C)c1ccccc12 (stereo not given)	nt	-2
O=C(O)c1cn(Cc2ccccc2Cl)c2ccccc12	2.8	-2.5
c1ccc2nc(N3CCNCC3)ccc2c1	1.3	nt
COc1ccc(/C=C/[N+](=O)[O-])cc1	nt	-0.42
COc1cccc(CNC2CN3CCC2CC3)c1 (stereo not given)	0.03	-1.7
CC(C)N1CCC(c2ccccc2)C1 (stereo not given)	-2.6	-0.76
Cc1ccc(C)c(C2SCC(=O)Nc3c2c(C)nn3-c2ccc(F)cc2)c1 (stereo not given)	1.2	-1.4
C[C@@H]1O[C@@H](O[C@H]2C[C@@H](O)[C@]3(CO)[C@H]4[C@H](O)C[C@]5(C)[C@@H](C6=CC(=O)OC6)CC[C@]5(O)[C@@H]4CC[C@]3(O)C2)[C@H](O)[C@H](O)[C@H]1O	1.8	-1.6
Cc1cc(N2CCN(C)CC2)nc2ccccc12	0.21	-0.18
CCOP(=S)(NNc1cccc(C(F)(F)F)c1)OCC	nt	0.42
O=S1(=O)CC2SC2C1 (stereo not given)	nt	0.37
CCOC(=O)C1CCC(CNC(=O)N2Cc3ccccc3-n3cccc3C2C)CC1 (stereo not given)	-0.29	nt
CCOc1c(Br)cc(CNCCc2c[nH]c3ccccc23)cc1OC	-1.8	0.05
COCCOC(=O)C1=C(N)Oc2c(c(=O)oc3ccccc23)C1c1ccncc1 (stereo not given)	nt	-0.71
O=C(Nc1cc(F)ccc1F)N(Cc1ccc2c(c1)OCO2)C1CCN(Cc2ccccc2)CC1	-0.26	nt
CSC(=S)NCc1c[nH]c2ccccc12	1.2	nt
O=C1NC(=S)NC(=O)C1=Cc1ccco1	nt	0.28
Cc1cc(C)c2c(CC(=O)N3CCN(C)CC3)coc2c1	0.79	2.7
CC(=O)O[C@@H]1CC[C@]2(C)C3CC[C@]4(C)C(=O)CCC4C3CC[C@H]2C1 (stereo not given in full)	1.8	nt
CNCC(O)c1ccc([N+](=O)[O-])cc1 (stereo not given)	nt	-1.6
COc1cc(C2SCC(=O)Nc3c2c(C)nn3-c2ccccc2)cc(OC)c1OC (stereo not given)	nt	-0.98
C(#CCN1CCCCC1)COCc1ccccc1	-0.06	-2.8
Cc1cccc(-n2nc(C)c3c2NC(=O)CSC3c2ccccc2C)c1 (stereo not given)	2	-1.2
CCOc1ccccc1C1SCC(=O)Nc2c1c(=O)[nH]n2C1CCOC(C)(C)C1 (stereo not given)	2.3	-1.3
Cc1ccc(NC(=O)N(C)C)cc1Cl	nt	-1.1
N/C(=N/N=C1CCCC1)N[N+](=O)[O-]	nt	-2.6
CC(C)C1(O)c2ccccc2-c2ncccc21 (stereo not given)	nt	-1
CNC(=O)O/N=C/c1nn(C(C)=O)cc1Br	nt	-0.29
C=C1N2CCC(CC2)C1(O)c1ccccc1 (stereo not given)	nt	-0.8
C[C@H]1CC[C@@H]2[C@@H](C)[C@H]3[C@H](C[C@H]4[C@@H]5CC=C6C[C@@H](O[C@@H]7O[C@H](CO)[C@H](O)[C@H](O[C@@H]8O[C@H](CO)[C@@H](O)[C@H](O)[C@H]8O)[C@H]7O[C@H]7O[C@@H](C)[C@H](O)[C@@H](O)[C@H]7O)CC[C@]6(C)[C@H]5CC[C@]34C)N2C1	2.9	nt
CCN(CC)P1(=S)OC(C)(C)CC1(C)O (stereo not given)	nt	-2
COc1ccccc1OCCCn1cc(C(=O)C(C)(C)C)c2ccccc21	-0.23	-2.1
CCOC(=O)C1SC2(C(F)(F)F)CC1(O)c1c(C)cc(C)nc1O2 (stereo not given)	nt	0.66
COC(=O)C[C@@](O)(CCC(C)(C)O)C(=O)O[C@@H]1C(OC)=C[C@]23CCCN2CCc2cc4c(cc2[C@@H]13)OCO4	2.9	nt
C=CCOc1ccc(C2SCC(=O)Nc3c2c(C)nn3-c2ccc(OC)cc2)cc1OC (stereo not given)	0.44	-2.9
CC(C)CCSc1nnc(C2CCNCC2)o1	1.3	-1.2
C[C@]12CCC3C(CC[C@H]4C[C@@H](Cl)CC[C@]34C)C1CCC2=O (stereo not given in full)	2.2	nt
COc1ccc2[nH]cc(CCNCc3cccnc3)c2c1	1.8	-1.2
CCCN1CCC[C@@H]2Cc3[nH]ncc3C[C@H]21	nt	3.6
COc1cc(C2C(C#N)=C(N)Oc3c2ccc2ccccc32)cc(OC)c1OC (stereo not given)	nt	-1.8
C=CCN1C(=O)C2(C(C(=O)OCC)=C(N)OC3=C2C(=O)CCC3)c2ccccc21 (stereo not given)	nt	0.2
CN(C)C(=O)O/N=C(\N)c1ccc(OCc2ccccc2F)cc1	nt	-1.2

More structures:
smiles	HIV TAR-Tat	CDC25B-CDK2 inh
OCCC1CNCCN1Cc1c(F)cccc1Cl (stereo not given)	0.93	-2.2
CN1CC[C@@H](c2ccc(F)cc2)[C@H](COc2ccc3c(c2)OCO3)C1	0.36	nt
NCCc1ccc(S(=O)(=O)F)cc1	0.97	-0.2
C[C@H](N)CN1CCc2ccc(Br)cc21	nt	-2.4
CCOC(=O)C1CCC(CNC(=O)N2Cc3ccccc3-n3cccc3C2CC)CC1 (stereo not given)	1.6	nt
O=c1c2ccccc2nc(/C=C/c2ccc3c(c2)OCO3)n1-c1ccccc1O	0.82	-1.1
COc1ccc(C2CC(=O)C3=C(C2)NC(=O)CC3c2ccc(Br)cc2)cc1OC (stereo not given)	-1.2	-0.92
CN1CC=C(c2noc(CCC(=O)Nc3ccc(Cl)cn3)n2)CC1	1.4	-1.3
CC(C)(C)NCC(O)c1ccccc1Cl (stereo not given)	1.1	-1.6
Cc1nn(-c2ccccc2)c(Cl)c1C1C(C#N)=C(N)Oc2c1c(=O)oc1ccccc21 (stereo not given)	nt	-0.66
CC[C@]12C=CCN3CC[C@@]4(c5ccc(OC)cc5N(C)[C@H]4[C@@](O)(C(=O)OC)[C@@H]1OC(C)=O)[C@@H]32	1.3	nt
O=C(c1ccccc1I)c1cn(CCCCCF)c2ccccc12	-0.43	nt
CN1C2CC(=O)CC1C(O)C2 (stereo not given)	3.1	nt
Cc1ccc(OP2(=S)OCCCN2c2ccccc2)cc1 (stereo not given)	nt	0.36
C=C(C)C1CNC(C(=O)O)C1CC(=O)O (stereo not given)	-0.21	nt
Cc1oc2cc(OC(=O)N(C)C)ccc2c(=O)c1Oc1ccccc1Br	-0.45	-1.9
O=C1CC(=O)N(c2ccccc2F)C(=O)N1	0.32	-2.6
COc1cc(C(c2c(O)c3ccccc3oc2=O)c2c(C)n(C)n(-c3ccccc3)c2=O)ccc1O (stereo not given)	nt	-0.5
CC1c2cccn2-c2ccccc2CN1C(=O)Nc1ccccc1Br (stereo not given)	-0.8	nt
Clc1ccccc1CC1=NCCN1	nt	1.1
Fc1ccc(NC2=NCCN2)cc1	nt	4.3
C#CCN1C(=O)C2(C(C(=O)OCC)=C(N)OC3=C2C(=O)CC(C)(C)C3)c2ccccc21 (stereo not given)	nt	-2.2
COc1ccc(OC)c(C(O)C(C)N)c1 (stereo not given)	-0.23	-1.4
COc1ccc(C2SCC(=O)Nc3c2c(=O)[nH]n3C2CCCC2)cc1OC (stereo not given)	0.3	-0.52
CN(C)[C@@H]1C(=O)C(C(N)=O)=C(O)[C@@]2(O)C(=O)C3=C(O)c4c(O)cccc4[C@@](C)(O)[C@H]3[C@H](O)[C@@H]12	22*	nt
Cc1ccc(C2c3cccn3-c3ccccc3CN2C(=O)NC2CCCC2)cc1 (stereo not given)	1.3	nt
